Screening data (PubChem BioAssay)
Rango complex inh: prevents formation of the Rango-importin beta complex; 0.031% of 340,000 active; Rango CFP/YFP FRET sensor + importin beta, 45 min; Potency, µM (titrated, usually from 92.2 µM), for the others: at the highest dose inhibition of complex formation; AID 540263; Q14974; active = rising FRET ratio curve, often small or poorly fitted; inconclusive = mostly compound fluorescence or quenching in the first reads; inactive = flat curves in all reads;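 also: potency is read from the fitted curve at half-maximal effect; 0% = DMSO wells and 100% = buffer wells lacking importin beta; nearly all actives have a fitted effect of over 15% in size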
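Inhibition scored from the CFP 486 nm/YFP 530 nm FRET ratio 45 min after adding 0.125 microM importin beta to 50 nM Rango biosensor preincubated 5 min with compound (room temperature, PBS with DTT, Tween-20, BSA). No-importin wells as positive control.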
miR-21 FLuc: raises the signal of a miR-21 reporter. HeLa miR-21 FLuc reporter, luciferase, 48 h. Potency, µM (titrated, usually from 38.3 µM), inactives show at the top dose reporter change, positive = more light. 340,000 tested, under 10 active. AID 2288; active = well fitted rising curve with a large enough effect; inconclusive = small, poorly fitted or top-dose-only effect; inactive = no such curve, though single readings can be large or run the other way;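 also: % of control where 0% means no effect; miR-21 action dims this reporter so a rising signal means less miR-21 action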
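Luminescence from a firefly luciferase reporter carrying a miR-21 binding site downstream, stably expressed under a CMV promoter in HeLa cells that make miR-21 endogenously, reports miRNA modulation after 48 h compound exposure up to approximately 40uM final.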
GLA inh pH 4.5: blocks human alpha-galactosidase A at pH 4.5; activity change, negative = inhibition, % at 105 µM; purified enzyme, 4-MU-alpha-Gal fluorescence, pH 4.5; 230,000 tested, under 10 active; P06280; inconclusive = small, poorly fitted or top-dose-only inhibition, or a rising curve; inactive = flat fitted curve, though single readings scatter; no compound was filed as active;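 also: 0% = full activity with enzyme and -100% = basal without enzyme; dose as in the result columns while the protocol names 77 µM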
Target sequence (P06280 whole entry, looked up): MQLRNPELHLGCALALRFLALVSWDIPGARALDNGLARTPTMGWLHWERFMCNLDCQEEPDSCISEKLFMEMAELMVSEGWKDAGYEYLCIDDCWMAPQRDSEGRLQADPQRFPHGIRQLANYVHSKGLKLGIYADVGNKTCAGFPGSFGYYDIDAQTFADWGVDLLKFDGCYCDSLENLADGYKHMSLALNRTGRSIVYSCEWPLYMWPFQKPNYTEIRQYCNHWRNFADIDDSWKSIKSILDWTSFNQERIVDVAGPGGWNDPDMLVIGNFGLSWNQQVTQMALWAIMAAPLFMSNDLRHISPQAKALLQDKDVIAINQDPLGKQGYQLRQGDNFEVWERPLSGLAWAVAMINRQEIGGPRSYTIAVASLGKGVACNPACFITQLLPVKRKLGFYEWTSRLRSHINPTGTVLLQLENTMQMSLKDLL
Rango release inh: prevents RanGTP from dissociating the Rango-importin beta complex; Biochemical FRET Rango-importin beta, RanGTP-induced dissociation; Potency, µM (highest dose often 46.1 µM), for inactives: at the top dose activity change, negative = inhibition; 0.071% of 340,000 active; active means falling FRET ratio curve, often poorly fitted, with flat reads before Ran was added; inconclusive means other falling curves, or compound fluorescence or quenching; inactive means flat or rising ratio curve;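 also: potency is read from the fitted curve at half-maximal effect; % of control where 0% means no effect; nearly all actives have a fitted effect of over 45% in size; -100% = wells without RanGTP and RCC1; the record marks most hits as doubtful in a second field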
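Recombinant Rango FRET biosensor (EYFP–snurportin 1 IBB–cerulean CFP10) at 0.1 uM premixed with 0.25 uM importin beta in PBS, 1 mM DTT, 0.02% Tween-20, 0.1% BSA. Compound added 5 min; RanGTP-RCC1 (0.6 uM Ran, 2 mM GTP, 0.2 uM RCC1) then triggers release, read at 45 min.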
* = called active by the depositor; ? = inconclusive; / = no result given; & = joins results of further samples; [ ] = dose if it differs, or a comment. Not all compounds are listed; count on the stated rates, not on these rows.

Value order – Rango complex inh | miR-21 FLuc | GLA inh pH 4.5 | Rango release inh
> Cc1cccc(Nc2cc(=O)[nH]c(=O)[nH]2)c1C
  3.2% | -8% | -2 | -2%
> CN(C)/C(=N\S(=O)(=O)c1ccc(Cl)cc1)c1ccc(F)cc1
  0.3% | -3% | / | 2%
> Nc1c(NCCC2=CCCCC2)c(=O)[nH]c(=O)n1Cc1ccccc1
  ? | -10% | 5 | ?
> CC(=O)Cc1nnn(-c2cc(C)on2)n1
  / | -4% | 7 | /
> Nc1ccc(N=Nc2ccccc2)c2cccnc12
  -1.0% | -59% | / | 1%
> Cc1ccc(C(=O)N/C(=C\c2ccccc2F)c2nc(=S)[nH][nH]2)cc1
  ? | -2% | -7 | -2%
> Cc1ccccc1C(=O)NNC1=NCCC1
  0.2% | -2% | 1 | -13%
> COc1ccccc1OCC(=O)N1CCN(C(=O)c2ccco2)CC1
  -0.6% | -3% | / | 22%
> CC(C)(C)c1nc2scc(-c3cccs3)c2c(=O)o1
  ? | 19% | 3 | -6%
> O=C(O)c1cccc(NC(=O)c2cc(NC(=O)c3ccccc3)cc(NC(=O)c3ccccc3)c2)c1
  1.8% | -3% | / | -18%
> Cc1cc(C)cc(C(=O)NC(=S)Nc2cccnc2)c1
  -0.7% | -19% | / | 1%
> COc1cc(/C=N/N2C(=O)c3ccccc3NC2(C)c2cccc([N+](=O)[O-])c2)cc(Br)c1O (centres undefined)
  ? | -8% | -8 | 1%
> COc1ccc(C(=O)OCC(=O)c2ccc(S(=O)(=O)N3CCCCC3)cc2)c(OC)c1
  5.4% | / | / | -1%
> O=C(NC1=NN(c2ccccc2)CC1)Nc1ccccc1F
  -1.6% | -42% | -12 | 14%
> O=C(CCC1COc2ccccc2O1)NCC1COc2ccccc2O1 (centres undefined)
  -2.1% | -2% | -5 | 0%
> Cc1c(NC(=O)CSc2ccc(Cl)cc2)c(=O)n(-c2ccccc2)n1C
  0.0% | ? | 5[21.1 µM] | 22%
> CSc1ccc(S(=O)(=O)NCCSC(C)(C)C)cc1
  -3.4% | 1% | -8 | 2%
> CC(C(=O)NCC1CCCCC1)N(C)Cc1cccc(Cl)c1 (centres undefined)
  -0.3% | -2% | -10 | -19%
> c1cncc(CNc2nc(-c3cccnc3)nc3ccccc23)c1
  1.3% | 3% | / | -8%
> O=C(NC1(C(F)(F)F)NC(=O)N(CCc2ccccc2)C1=O)C1CC1 (centres undefined)
  -3.8% | -5% | -2 | -13%
> Cc1c(F)cccc1NS(=O)(=O)c1ccc(OCCNS(C)(=O)=O)cc1
  0.0% | 11% | 7 | -2%
> CC1CCN(CCCNS(=O)(=O)c2cc(Br)cc3c2N(C(=O)C2CC2)CC3)CC1
  0.4% | -3% | / | -12%
> Cc1nn(Cc2ccc(C(=O)Nc3nc4c(C)cccc4s3)o2)c(C)c1Br
  -0.2% | 0% | -4 | 12%
> COc1cc(C(=O)NCCC2=CCCCC2)ccc1OC1CCN(C(C)=O)CC1
  -2.5% | -12% | / | -7%
> Cc1cc(=O)c(C(=O)O)nn1-c1ccc(Cl)cc1
  2.0% | 3% | 12 | 5%
> CCOC(=O)c1cc(S(=O)(=O)N2CC(C)CC(C)C2)cn1C (centres undefined)
  -2.8% | -2% | / | 21%
> O=S(=O)(NCc1cc(-c2ccc(Cl)cc2)no1)c1ccccc1
  -1.2% | -3% | -13 | 1%
> O=C(CC1Oc2ccccc2NC1=O)NCc1ccc(Cl)cc1 (centres undefined)
  0.7% | -4% | -1 | -3%
> COC(=O)Cn1cc(C(=O)OC)c2ccccc21
  1.1% | -6% | 6 | 10%
> O=C(N/N=C/c1cn(-c2ccccc2)nc1-c1cc2ccccc2o1)c1c[nH]c2ccccc12
  6.9% | 16% | 8 | -18%
> Cc1cccc(N2N=C(C(=O)O)CCC2=O)c1
  0.4% | -1% | / | 13%
> O=C(NCc1ccc(F)cc1)C1CCN(C(=O)Nc2ccc(F)cc2)CC1
  -0.6% | 2% | / | ?
> O=C(COc1ccc2ccccc2c1Br)NC(=S)Nc1cccc(CO)c1
  4.7% | -68% | 9 | -16%
> CSCC[C@H](NC(=O)CCCn1nnc2ccccc2c1=O)C(=O)O
  5.2% | -9% | -8 | 9%
> CCSc1nnc(NC(=O)C2Cc3ccccc3CN2S(=O)(=O)CC)s1 (centres undefined)
  3.4% | -42% | 6 | 29%
> COc1ccc(C)cc1NC(=O)COC(=O)c1ccc2ccccc2n1
  -0.3% | / | / | 5%
> Cc1ccc2c(CN(C)Cc3cccc(F)c3)cc(=O)oc2c1C
  2.2% | -15% | / | -7%
> NC(=O)CCn1c(C(=O)c2ccc(Cl)cc2)c2ccccc2[n+]1[O-]
  5.3% | -8% | / | -2%
> O=C(NNc1ccccc1C(F)(F)F)c1cccs1
  2.7% | -2% | -10 | 24%
> CC(=O)Nc1nc(CC(C)C)cc(-c2ccco2)c1C#N
  -3.2% | -13% | 8 | 18%
> CC(C)N1CCN(Cc2ccc(OC3CCCC3)cc2)CC1CCO (centres undefined)
  1.0% | -2% | / | 0%
> O=C(O)c1ccc(/C=C/c2ccc3cccc(O)c3n2)cc1
  -0.5% | -66% | -16 | 15%
> O=C(C1CCCN(Cc2nc(-c3cccs3)no2)C1)N1CCOCC1 (centres undefined)
  -0.1% | -4% | 3 | 9%
> CCC(C)c1ccccc1OCCOCCN1CCCC1 (centres undefined)
  1.0% | -5% | -3 | 7%
> Fc1cccc2sc(Nc3nnc(-c4ccccc4)o3)nc12
  0.1% | -46% | 7 | -7%
> O=C(O)c1cc2ccc3ccccc3c2[nH]1
  -6.2% | -6% | -5 | -8%
> Nc1nc(NCCCN2CCOCC2)nc(Nc2ccccc2)c1[N+](=O)[O-]
  1.4% | -16% | -11 | -7%
> CC(C)OCCCn1c(SC(C)C(=O)NCC2CCCO2)nc2cc(Cl)ccc2c1=O (centres undefined)
  -0.6% | / | / | 15%
> O=[N+]([O-])c1cccc(CN2CCC(Cc3ccccc3)CC2)c1
  -1.9% | -1% | / | 16%
> Cc1ccc(F)cc1NC(=O)CN1C(=O)NC(C)(c2ccc3c(c2)OCCO3)C1=O (centres undefined)
  4.0% | / | / | -2%
> O=C(Nc1ccc(F)cc1)Nc1cccnc1
  0.2% | -21% | / | ?
> c1ccc(-c2nnc(N3CCCC3)nc2-c2ccccc2)cc1
  1.7% | 8% | / | 1%
> O=C(CCCOc1ccccc1)Nc1nc2ccccc2[nH]1
  -1.4% | -36% | 0 | -10%
> CC(=O)c1ccc(N2CCN(C(=O)C3CCCN(S(=O)(=O)c4c(C)[nH]c(=O)[nH]c4=O)C3)CC2)cc1 (centres undefined)
  5.2% | 2% | 1 | 7%
> O=C(O)c1[nH]c2ccccc2c1C=NCc1ccccc1Cl
  -4.1% | -2% | 1 | 4%
> CC1(Br)C2CCCC1C2S(=O)(=O)c1ccccc1 (centres undefined)
  0.0% | -5% | 6 | -8%
> O=C(O)C1CCN(S(=O)(=O)c2cccnc2)CC1
  1.3% | 0% | 3 | 8%
> O=S(=O)(Nc1cccnc1)c1ccc(Cl)cc1
  -2.4% | -1% | 6 | 1%
> CCO[C@@H]1OC(C(=O)NC2CC2)=C[C@H](c2ccc3c(c2)OCO3)[C@H]1CCCO
  -1.6% | -1% | -2 | 26%
> COc1cccc(-c2cc(C(=O)Nn3cnnc3)c3ccccc3n2)c1
  0.5% | 14% | 3 | -3%

(next part)
Value order – Rango complex inh | miR-21 FLuc | GLA inh pH 4.5 | Rango release inh
> Cn1c2ccccc2c2c(C(=O)NCc3ccco3)cn(C3CCCCC3)c(=O)c21
  ? | 7% | 3 | ?
> CC1CCC2(CC1)NC(=O)N(CC(=O)Nc1ccc(F)cc1)C2=O (centres undefined)
  -2.1% | / | / | 11%
> CC1(C)SC(=S)N(/N=C/c2cccnc2)C1N(O)C(=O)NC1CCCCC1 (centres undefined)
  4.9% | -3% | 2 | 2%
> Cc1nc(C)c(C(=O)NNC(=O)c2ccc(Br)cc2)s1
  -3.0% | -1% | 22 | -3%
> COc1ccc(CNC(=O)CCS(=O)(=O)c2cc3c(cc2Cl)NC(=O)CO3)cc1
  -0.7% | 2% | / | 13%
> Cc1occc1C(=O)NNC(=O)NC12CC3CC(CC(C3)C1)C2
  0.1% | -11% | 11 | 9%
> CCc1nc(SCC(=O)Nc2ccccc2C)n[nH]1
  3.7% | -2% | / | -21%
> CCOc1ccc(C(=O)OCC(=O)NCC2CCCO2)cc1 (centres undefined)
  -3.9% | / | / | -3%
> Nc1ccc(NS(=O)(=O)c2ccccc2)cc1
  5.1% | 0% | -2 | -1%
> CCC1ON(c2ccccc2)C2c3nc4ccccc4n3CC12 (centres undefined)
  -0.1% | 0% | 4 | -16%
> C=CC[C@@H](CC(=O)NCCO)C(=O)NC[C@@H](OC(=O)[C@H](CC=C)CC(=O)OC(C)(C)C)c1ccccc1
  -0.2% | / | / | 0%
> COc1ccc(-c2nnn(CC(=O)N(CC(=O)NCCC(C)C)Cc3cccs3)n2)cc1OC
  0.4% | -1% | 2 | -1%
> COc1ccccc1N1CCC(N2CCN(CC(C)(C)C)C(CCO)C2)CC1 (centres undefined)
  0.0% | 2% | / | -5%
> Cc1nn(CC(=O)NCc2ccc(-n3cccn3)cc2)c(C)c1[N+](=O)[O-]
  5.6% | -13% | 1 | -3%
> CC1(C)C(=O)Nc2ccccc2N1C(=O)COC(=O)c1ccc(Cl)c(S(=O)(=O)NCc2ccccc2)c1
  1.1% | 11% | 5 | -21%
> CCN(CC)S(=O)(=O)c1ccc(OC(C)C)c(NC(=O)c2c3c(nc4ccccc24)CCN(Cc2ccccc2)C3)c1
  0.1% | 15% | -10 | 5%
> C#CCn1c(=NC(=O)c2cccs2)sc2cccc(OC)c21
  -2.5% | -10% | -5 | 2%
> COC(=O)C1C2C=CC3(CN(CC4CCCO4)C(=O)C13)O2 (centres undefined)
  0.4% | -2% | 0 | -13%
> O=C1OCCC1Sc1nc2ccccc2[nH]1 (centres undefined)
  2.8% | -5% | 2 | 1%
> COc1ccc(N2CCN(C(=O)c3cccc(F)c3)CC2)c([N+](=O)[O-])c1
  -0.5% | -2% | 0 | 0%
> Cc1c(NC(=O)C(C)OC(=O)CC2Sc3ccccc3NC2=O)c(=O)n(-c2ccccc2)n1C (centres undefined)
  -0.3% | -14% | 5 | -7%
> O=C(Cc1ccc(Cl)cc1)NCCc1ccc(F)cc1
  -6.3% | / | / | 33%
> Cc1cc(C)n(CC(O)CN(c2cccc([N+](=O)[O-])c2)S(=O)(=O)c2ccccc2)n1 (centres undefined)
  -1.1% | 0% | -2 | -12%
> Cc1ccc(Cl)cc1NC(=S)N(Cc1cccs1)C1CCCC1
  4.4% | 0% | -7 | -12%
> CC(C)(C)NC(=O)c1sccc1C(=O)O
  -0.7% | -10% | 14 | 1%
> CCOc1ccc(OCc2ccc(C(=O)NCc3cccnc3)o2)cc1
  3.7% | -20% | 8 | -11%
> COc1ccccc1NC(=O)c1ccc(NC(=O)Cc2n[nH]c(=O)c3ccccc23)cc1
  ? | 0% | -10 | -23%
> COc1ccccc1NC1CCCCC1NS(=O)(=O)c1ccccc1 (centres undefined)
  -0.6% | 1% | / | 1%
> COc1ccccc1C(=O)Nc1nnc(S(=O)(=O)N2CCCCCC2)s1
  -1.5% | -14%&-42% | / | 1%
> CC(=O)Nc1nc(-c2ccc3ccccc3c2)cs1
  -1.9% | -55% | / | 2%
> C=CCNC(=S)N1CCN(Cc2ccc3c(c2)OCO3)CC1
  4.4% | 1% | / | -9%
> COc1ccc(NC(=O)CNc2cccc(C#N)c2)cc1Cl
  1.6% | -18% | -2 | 16%

Pulled by compound from the entries so far (5):
Value order – Rango complex inh | miR-21 FLuc | GLA inh pH 4.5 | Rango release inh
> O=C(NCc1ccc(F)cc1)C1CCN(C(=O)Nc2ccc(F)cc2)CC1
  -0.6% | 2% | / | ?
> COc1ccc(C(=O)OCC(=O)c2ccc(S(=O)(=O)N3CCCCC3)cc2)c(OC)c1
  5.4% | / | / | -1%
> C=CCNC(=S)N1CCN(Cc2ccc3c(c2)OCO3)CC1
  4.4% | 1% | / | -9%
> COc1ccc(N2CCN(C(=O)c3cccc(F)c3)CC2)c([N+](=O)[O-])c1
  -0.5% | -2% | 0 | 0%
> Cc1cccc(N2N=C(C(=O)O)CCC2=O)c1
  0.4% | -1% | / | 13%
